Rango-impB inh: Rango-importin beta binding inhibition; Q14974; Rango CFP/YFP FRET sensor + importin beta, 45 min; Potency, µM (top dose mostly 92.2 µM), for inactives: at the top dose inhibition of complex formation; hit rate 0.031% among 340,000; AID 540263; active = rising FRET ratio curve, often small or poorly fitted; inconclusive = mostly compound fluorescence or quenching in the first reads; inactive = flat curves in all reads;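 note: potency is the fitted concentration of half-maximal effect; 0% = DMSO wells and 100% = buffer wells lacking importin beta; nearly all actives have a fitted effect of over 15% in size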
Target sequence (Q14974 whole entry, looked up): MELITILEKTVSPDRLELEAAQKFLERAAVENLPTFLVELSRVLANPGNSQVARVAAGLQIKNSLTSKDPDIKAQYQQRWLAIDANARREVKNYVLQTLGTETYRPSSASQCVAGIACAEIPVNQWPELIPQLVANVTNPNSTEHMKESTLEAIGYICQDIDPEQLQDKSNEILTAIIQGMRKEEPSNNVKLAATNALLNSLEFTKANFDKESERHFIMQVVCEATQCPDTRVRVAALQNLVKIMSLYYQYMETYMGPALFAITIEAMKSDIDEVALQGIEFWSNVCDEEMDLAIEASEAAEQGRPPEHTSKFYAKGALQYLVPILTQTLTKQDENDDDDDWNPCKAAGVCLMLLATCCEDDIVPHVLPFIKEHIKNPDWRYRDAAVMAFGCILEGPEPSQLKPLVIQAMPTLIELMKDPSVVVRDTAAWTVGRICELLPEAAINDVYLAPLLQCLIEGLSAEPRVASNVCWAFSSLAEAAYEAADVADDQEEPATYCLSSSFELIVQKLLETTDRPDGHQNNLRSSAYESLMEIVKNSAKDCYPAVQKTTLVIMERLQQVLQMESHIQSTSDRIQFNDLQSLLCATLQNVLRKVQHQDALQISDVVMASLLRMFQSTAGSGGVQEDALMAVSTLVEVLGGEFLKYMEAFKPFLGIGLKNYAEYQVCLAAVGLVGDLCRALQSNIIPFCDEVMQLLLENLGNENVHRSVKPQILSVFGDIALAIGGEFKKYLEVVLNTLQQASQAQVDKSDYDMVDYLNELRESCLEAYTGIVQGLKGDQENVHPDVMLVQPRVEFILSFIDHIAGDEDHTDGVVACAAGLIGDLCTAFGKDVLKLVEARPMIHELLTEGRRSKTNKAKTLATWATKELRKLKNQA
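Inhibition scored from the CFP 486 nm/YFP 530 nm FRET ratio 45 min after adding 0.125 microM importin beta to 50 nM Rango biosensor preincubated 5 min with compound (room temperature, PBS with DTT, Tween-20, BSA). No-importin wells as positive control.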
GLA inh pH 4.5: inhibitors of human alpha-galactosidase A at pH 4.5; purified enzyme, 4-MU-alpha-Gal fluorescence, pH 4.5; P06280; 230,000 tested, under 10 active; activity change, negative = inhibition, % at 105 µM; AID 1467; inconclusive = small, poorly fitted or top-dose-only inhibition, or a rising curve; inactive = flat fitted curve, though single readings scatter; no compound was filed as active;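 note: 0% = full activity with enzyme and -100% = basal without enzyme; dose as in the result columns while the protocol names 77 µM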
Rango dissoc inh: prevents RanGTP from dissociating the Rango-importin beta complex; O95149+P62826; Biochemical FRET Rango-importin beta, RanGTP-induced dissociation; Potency, µM (highest dose often 46.1 µM), for the others: top-dose activity change, negative = inhibition; hit rate 0.071% among 340,000; active means falling FRET ratio curve, often poorly fitted, with flat reads before Ran was added; inconclusive means other falling curves, or compound fluorescence or quenching; inactive means flat or rising ratio curve;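 note: potency is the fitted concentration of half-maximal effect; % of control where 0% means no effect; nearly all actives have a fitted effect of over 45% in size; -100% = wells without RanGTP and RCC1; the record marks most hits as doubtful in a second field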
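Rango FRET biosensor (snurportin-1 IBB flanked by N-terminal EYFP and C-terminal CFP10) at 0.1 uM, with 0.25 uM importin beta in PBS, 1mM DTT, 0.02% Tween-20, 0.1% BSA. 0.6 uM Ran, 2mM GTP and 0.2 uM RCC1 were then added for 45 min at room temperature. Inhibition read as loss of FRET rise.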
miR-21 reporter: raises the signal of a miR-21 reporter | HeLa miR-21 FLuc reporter, luciferase, 48 h | Potency, µM (highest dose often 38.3 µM), for inactives: at the highest dose reporter change, positive = more light | 340,000 tested, under 10 active | AID 2288; active = well fitted rising curve with a large enough effect; inconclusive = small, poorly fitted or top-dose-only effect; inactive = no such curve, though single readings can be large or run the other way;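 note: % of control where 0% means no effect; miR-21 action dims this reporter so a rising signal means less miR-21 action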
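HeLa cells stably expressing CMV-driven firefly luciferase with a downstream miR-21 binding sequence, endogenously expressing miR-21, were treated with titrations (up to about 40uM final) for 48 hours at 37 degree Celsius. Luciferase luminescence was read after lysis.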
The depositor's hits bear a star; ? = inconclusive; . = not tested or not shown; & = joins results of further samples. This is a subset; rates above refer to the full screens.

SMILES	Rango-impB inh	GLA inh pH 4.5	Rango dissoc inh	miR-21 reporter
COc1ccc(C(C(=O)NCc2ccccc2)N(Cc2ccco2)C(=O)c2snc(C(N)=O)c2N)cc1OC (stereo not given)	-3.7%	.	6%	18%
COc1ccc(-c2cc3ccc(OCc4nn[nH]n4)cc3oc2=O)cc1OC	?	-1	?	-6%
Cn1c(CCC(=O)O)nc2cc(S(=O)(=O)N3CCCCC3)ccc21	1.3%	.	-3%	.
CN1C(=O)c2oc3ccccc3c(=O)c2C1c1cccnc1 (stereo not given)	13%	.	5%	.
CCN(CC)S(=O)(=O)c1ccc(/C=C/C(=O)Nc2ccc(F)c(F)c2F)cc1	-0.2%	2	-7%	17%
NS(=O)(=O)c1ccc(CCNC(=O)CCc2nc3sc4c(c3c(=O)[nH]2)CCCC4)cc1	?	.	?	.
Cc1ccccc1-n1cc(C(=O)c2cc(Cl)ccc2O)cc(C#N)c1=O	?	1	?	11%
CC1CC(c2ccccc2)n2nc(N3C(=O)c4ccccc4C3=O)nc2N1 (stereo not given)	-0.7%	0	6%	-4%
COC(=O)C(C)Sc1nc2c(c(=O)n(C)c(=O)n2C)n1Cc1cccc(C)c1 (stereo not given)	-0.1%	-3	17%	-6%
O=C(NCC1CCCO1)c1nc(Cn2ccc([N+](=O)[O-])n2)no1 (stereo not given)	1.9%	.	25%	5%
O=C(CN1CCN(c2nc(-c3ccc(F)cc3)cs2)CC1)NCc1ccc2c(c1)OCO2	-0.2%	-11	10%	9%
CCOc1ccc(S(=O)(=O)N(CC(=O)NC2CCCC2)c2ccc(F)cc2)cc1	-2.1%	.	36%	.
O=c1c(-c2ccccc2)c(-c2ccccc2)oc2cc(O)cc(O)c12	-3.0%	.	-11%	-21%
CC1CCN(S(=O)(=O)c2ccc(NC(=O)CN3CCCCCC3)cc2)CC1	-3.6%	.	?	0%
Cc1cc(-c2ccc(S(=O)(=O)NCc3ccc(F)cc3)cc2)on1	2.0%	.	5%	0%
CC(=O)NCCC1CCN(C(=O)c2cc(COc3ccc(C)nc3)on2)CC1	-0.5%	.	4%	5%
COc1ccc(Cl)cc1C(=O)NNC(=O)COC(=O)c1cccs1	0.5%	.	6%	.
CCOC(=O)N1CCC(NC(=O)c2ccc3c(c2)sc2nc(-c4cccc(OC)c4)cn23)CC1	.	-3	.	17%
CCOc1ccc(NC(=O)CN(C)C(=O)c2cn(-c3ccccc3)nc2-c2cccs2)cc1OCC	0.2%	.	29%	17%
CCCC1C2C(=O)N(c3ccccc3OC)C(=O)C2ON1c1ccccc1 (stereo not given)	-2.8%	-3	6%	-6%
O=c1c2ccccc2nnn1CSc1nc2ccccc2c(=O)n1Cc1ccco1	2.2%	4	8%	0%
O=C(N/N=C\c1ccc(-c2cccc(Cl)c2)o1)C(=O)NC1CCCC1	4.5%	2	0%	-1%
NC(=O)COC(=O)c1ccc(Cl)c(S(=O)(=O)N2CCN(c3ccc(F)cc3)CC2)c1	0.1%	-9	-7%	-1%
Cc1[nH]nc2c1C(c1ccc(-c3ccccc3C#N)o1)C(C#N)=C(N)O2 (stereo not given)	-5.0%	-9	-3%	15%
COc1cccc(/C=N/NC(=O)C(=O)Nc2ccccc2OC(F)(F)C(F)F)c1	4.7%	8	1%	-12%
COc1ccc2cc3cc(C(=O)NCCC(C)C)oc3nc2c1	-1.6%	.	-7%	-6%
CCOCCn1c(CN2CCN(c3cccc(Cl)c3)CC2)nc2c1c(=O)n(C)c(=O)n2C	-3.7%	0	1%	15%
CCOc1ccc2nc(N(Cc3ccccc3)C(=O)CCNC(C)=O)sc2c1	0.5%	.	-10%	-32%
O=C(Nc1ccc(S(=O)(=O)N2CCOCC2)cc1)c1cccnc1	-2.0%	-9	14%	-6%
CC[C@]12c3[nH]c4ccc(OC)cc4c3CCN1C(=O)C(CC(=O)NCCC1=CCCCC1)C[C@@H]2C(=O)N1CCN(C(=O)C2CC2)CC1 (stereo not given in full)	-2.1%	.	-14%	.
COc1ccc(-c2nc(N)nc(C(F)(F)F)c2-c2cscn2)c(O)c1	-1.2%	-4	53%	2%
COC(=O)CCCC1=CC2=CC(=O)C(C)(OC(=O)c3cccs3)C(=O)C2=CN1C1CC1 (stereo not given)	-2.5%	-3&-10	-7%	0%
C[C@H]1[C@H](c2ccccc2)C[C@@H](C(=O)O)C1(C)C	3.9%	.	2%	.
O=C(CSc1nc2ccccc2o1)N1CCCC1	-1.6%	4	2%	-25%
COc1ccc(-c2cc3nc(C)cc(-c4ccc(OC)cc4)n3n2)cc1	?	.	?	-10%
O=C(NN=Cc1ccc(F)cc1)c1ccccc1NS(=O)(=O)c1cccs1	0.4%	.	8%	.
CCOc1ccc(C(=O)Nc2cccc(-c3nc4cccnc4o3)c2)cc1Cl	3.5%	0	13%	-3%
CCc1ccc(/C=N/NC(=O)c2cc(-c3cccc([N+](=O)[O-])c3)n[nH]2)cc1	-1.3%	2	-14%	26%
COCCCN(CC(=O)Nc1ccc(N2CCOCC2)cc1)S(=O)(=O)c1ccc(C)cc1	0.7%	-6	30%	-2%
COc1ccc2[nH]c3nc(SCC(=O)Nc4cccc(NC(C)=O)c4)nnc3c2c1	?	.	-15%	-8%
N#Cc1c2n(c3c(-c4ccccc4)ncnc13)CCC2	5.3%	3	2%	-12%
COc1ccccc1Oc1coc2c(CN3CCN(C)CC3)c(O)ccc2c1=O	-4.0%	1	-5%	0%
CC(C)(C)C1CCc2onc(C(=O)Nc3cccc(O)c3)c2C1 (stereo not given)	.	-5	.	5%
O=C(NCCCc1ccccc1)C1CC1	0.3%	.	14%	.
COc1ccc2c(Cn3cnc4cc([N+](=O)[O-])ccc4c3=O)cc(=O)oc2c1	3.5%	3	-6%	?
O=C(COC(=O)CC1CC2CCC1C2)Nc1ccccc1Cl (stereo not given)	-3.7%	.	-9%	.
COc1ccc(C2C(C(=O)N3CCN(c4ccccc4)CC3)c3ccccc3C(=O)N2C)cc1 (stereo not given)	8.0%	-9	12%	0%
O=C(CSc1ccccc1)NCc1cccnc1	-2.5%	3	-10%	-9%
CSc1nnc(-c2ccc(NC(=O)CCc3ccccc3)cc2)n1C	-1.8%	4	-3%	-8%
COc1ccc(CNC(=O)CSc2cc(=O)n(C)c3ccccc23)cc1	0.6%	0	-9%	0%
Cc1cc(C)c2c(c1C)C(=O)CCC2	0.1%	.	-3%	.
CC(CN1CCOCC1)(NS(=O)(=O)c1ccccc1)c1ccccc1 (stereo not given)	-1.7%	4	11%	0%
CCCNC(=S)Nc1ccc(Cl)cc1C	-0.5%	-12	20%	0%
OC(C#CCN1CCOCC1)(c1ccccc1)C1CC1 (stereo not given)	3.7%	3	-3%	-1%
O=C(Nc1cccc(C(F)(F)F)c1)c1cccnc1NCCO	-1.7%	.	0%	1%
CCOc1ccc(NC(=O)CSc2nc3c([nH]c4ccccc43)c(=O)n2C)cc1	-3.1%	3	0%	1%
C[C@H](CO)N1C[C@H](C)[C@@H](CN(C)C(=O)Nc2ccc3c(c2)OCO3)Oc2ccc(NC(=O)NC3CCCCC3)cc2C1=O	1.2%	.	-12%	.
COC(=O)c1sccc1NC(=O)CCC1CCCCC1	-2.2%	-2	2%	-29%
Cc1ccccc1CS(=O)(=O)Cc1ccc(C(=O)NCc2ccco2)o1	0.2%	5	-18%	-5%
C=C1CCN([C@@H](CC(C)C)C(=O)O)S(=O)(=O)c2ccccc21	0.8%	.	17%	.

Part of the list above, set out differently:
Below each compound: Rango-impB inh | GLA inh pH 4.5 | Rango dissoc inh | miR-21 reporter
CN1C(=O)c2oc3ccccc3c(=O)c2C1c1cccnc1 (stereo not given)
→ 13% | . | 5% | .
COc1ccc2c(Cn3cnc4cc([N+](=O)[O-])ccc4c3=O)cc(=O)oc2c1
→ 3.5% | 3 | -6% | ?
CCOC(=O)N1CCC(NC(=O)c2ccc3c(c2)sc2nc(-c4cccc(OC)c4)cn23)CC1
→ . | -3 | . | 17%
Cc1cc(C)c2c(c1C)C(=O)CCC2
→ 0.1% | . | -3% | .

(more compounds)
SMILES	Rango-impB inh	GLA inh pH 4.5	Rango dissoc inh	miR-21 reporter
CC1CC(C)CN(C(=O)c2ccc3ncsc3c2)C1 (stereo not given)	2.9%	.	0%	.
CCC(C)Nc1nc2c(c(=O)n(C)c(=O)n2C)n1Cc1ccc(Cl)cc1 (stereo not given)	2.0%	1	5%	18%
O=C(Cn1nc(C(=O)O)c2ccccc2c1=O)c1cc(F)ccc1F	-3.1%	10	2%	-14%
CC(C)n1nc(C(=O)OCn2nnc3ccccc3c2=O)c2ccccc2c1=O	-6.2%	3	16%	-5%
CCOC(=O)N1CCC(N2CCCC(C(=O)c3ccc4cc(OC)ccc4c3)C2)CC1 (stereo not given)	1.3%	?	-12%	17%
Cc1cc(NC(=O)c2ccc(N3CCCC3)c([N+](=O)[O-])c2)no1	-3.2%	5	-18%	-23%
COc1ccc(-c2noc(CN(C)Cc3ccc(C)o3)n2)cc1	-1.7%	7	0%	-25%
COc1ccc(-n2nc(C(=O)NCC(=O)NCC3COc4ccccc4O3)c3ccccc3c2=O)cc1 (stereo not given)	0.5%	-9	17%	10%
O=C(O)CCCNS(=O)(=O)c1ccc(F)cc1	-4.4%	8	-4%	-4%
COc1ccc(CNC(N)=O)cc1OC	1.3%	4	2%	1%
CN(c1cccc(NC(=O)c2ccc(Cl)c(S(=O)(=O)Nc3ccccc3)c2)c1)S(C)(=O)=O	-4.1%	-5	21%	15%
COc1ccc(CNC(=O)c2csc(Cc3ccc(Cl)cc3)n2)cc1	0.5%	-8	-11%	4%
CCOC(=O)N1CCN(c2c(-c3ccccc3)c3cc(Cl)ccc3[nH]c2=O)CC1	-1.8%	0	5%	-1%
CCOc1ccc2nc(NC(=O)c3ccc(OCC4CCCO4)cc3)sc2c1 (stereo not given)	-1.4%	-3	-5%	-15%
O=C(CSc1ccccc1)NC1CCCCCC1	-2.2%	.	-13%	-65%
NCCCn1c(C(=O)c2cc(Cl)c(N)c(Cl)c2)c2ccc([N+](=O)[O-])cc2[n+]1[O-]	4.9%	.	2%	.
CCC(=O)NC(Nc1ncc(C)s1)(C(=O)OC)C(F)(F)F (stereo not given)	1.5%	5	7%	1%
COc1ccccc1C(=O)NCCC(=O)NCc1ccncc1	-2.7%	.	24%	.
Cc1cccc(OCC(=O)N(C)CCc2ccccn2)c1	-0.9%	1	?	-13%
O=C(C[C@@H]1C/C=C\CCC(=O)OC[C@@H]2CCCN2C1=O)N[C@@H](CO)Cc1ccccc1	0.0%	.	13%	.

Complete entries as entered above. Order of values: Rango-impB inh | GLA inh pH 4.5 | Rango dissoc inh | miR-21 reporter
Results for COc1ccc(CNC(=O)c2csc(Cc3ccc(Cl)cc3)n2)cc1 = 0.5% | -8 | -11% | 4%
Results for CCOC(=O)N1CCC(N2CCCC(C(=O)c3ccc4cc(OC)ccc4c3)C2)CC1 (stereo not given) = 1.3% | ? | -12% | 17%

Next part:
SMILES	Rango-impB inh	GLA inh pH 4.5	Rango dissoc inh	miR-21 reporter
CCOC(=O)COc1c(Br)cc(C2NC(=O)NC(C)=C2C(C)=O)cc1OC (stereo not given)	0.5%	-7	2%	-2%
COC(=O)c1nnn(-c2nonc2N)c1CSc1nc2ccccc2o1	0.0%	-21	2%	-15%
CCN(C(=O)COC(=O)/C(C#N)=C/c1ccc(OC)cc1)C1CCS(=O)(=O)C1 (stereo not given)	1.8%	.	16%	.
Cc1nnc(SCC2=C(C(=O)O)N3C(=O)[C@@H](NC(=O)Cn4cnnn4)[C@H]3SC2)s1	3.7%&-0.5%	6&1&4	15%&-2%	-9%
CC(C)OC(=O)C(C(=O)C(F)(F)F)c1cc(NS(=O)(=O)c2ccc3ccccc3c2)c2ccccc2c1O (stereo not given)	8.4%	0	28%	-1%
Cc1ccc(CC2C(=O)N(c3ccc(F)cc3)C(=O)C2C)cc1 (stereo not given)	-6.2%	.	10%	-4%
O=C1C=C(c2cccc(CO)c2)C[C@@H](c2ccc(Cl)cc2)C1	-0.3%	.	-3%	.
CCOc1ccc(CNC(=O)c2ccccc2NC(=O)C2=CSCCO2)cc1	-0.5%	.	-5%	-6%

Screens deposited in PubChem BioAssay by National Center for Advancing Translational Sciences (NCATS).
